From PubChem
KCNQ2 inh: KCNQ2 potassium channel inhibitors, primary screen, cell-based, CHO-K1, FluxOR thallium flux, B-score (AID 2156) | Potassium voltage-gated channel subfamily KQT member 2 (Rattus norvegicus), O88943 | 20 min; hits give low values; only compounds with negative scores are shown here; some inactives read as strong as hits | 310,000 tested, 1.1% active | B-score at 10 µM;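 active means fluorescence ratio B-score at most minus 3 library SDs, with starting brightness B-score within 2 library SDs, cut at about -5.5 in these data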
Target sequence (O88943 whole entry, looked up): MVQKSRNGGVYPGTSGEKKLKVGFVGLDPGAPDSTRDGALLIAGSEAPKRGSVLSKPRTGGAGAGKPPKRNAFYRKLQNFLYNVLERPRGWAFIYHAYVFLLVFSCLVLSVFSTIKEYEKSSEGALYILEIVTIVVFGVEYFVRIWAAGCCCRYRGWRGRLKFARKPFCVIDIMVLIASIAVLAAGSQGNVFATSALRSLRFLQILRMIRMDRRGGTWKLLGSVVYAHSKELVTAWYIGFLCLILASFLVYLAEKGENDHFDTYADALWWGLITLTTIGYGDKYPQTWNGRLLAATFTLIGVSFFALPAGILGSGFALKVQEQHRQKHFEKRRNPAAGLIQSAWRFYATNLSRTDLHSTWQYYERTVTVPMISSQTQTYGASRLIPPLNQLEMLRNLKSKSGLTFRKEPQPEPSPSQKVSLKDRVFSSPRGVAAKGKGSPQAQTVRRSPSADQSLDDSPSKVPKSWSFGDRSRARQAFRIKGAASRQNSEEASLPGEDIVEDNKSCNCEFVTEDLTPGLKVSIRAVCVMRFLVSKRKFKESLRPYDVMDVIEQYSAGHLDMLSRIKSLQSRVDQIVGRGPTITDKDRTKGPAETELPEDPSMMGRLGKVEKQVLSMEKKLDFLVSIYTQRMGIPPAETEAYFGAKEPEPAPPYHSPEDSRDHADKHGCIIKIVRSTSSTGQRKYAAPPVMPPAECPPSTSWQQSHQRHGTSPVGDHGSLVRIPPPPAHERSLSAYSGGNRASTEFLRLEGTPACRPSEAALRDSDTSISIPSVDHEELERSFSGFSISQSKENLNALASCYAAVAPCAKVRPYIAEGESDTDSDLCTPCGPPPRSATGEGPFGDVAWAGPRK
KCNQ2 inh baseline: further read-out of KCNQ2 inh, marked with its call; B-score; measured here: initial fluorescence intensity artifact check;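 brightness before thallium and not channel activity; 0 = typical well and far values either way flag optical interference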
Active calls of the source: *; i = inactive. The list is partial; the hit share may differ from the screen's.

SMILES | KCNQ2 inh | KCNQ2 inh baseline
CCCCN1C(=O)NC(=O)C2(Cc3c(nc4c(C)cccn4c3=O)N3CCc4ccccc4C32)C1=O (stereo unspecified) | i | 2
CCOC(=O)CN1C(=O)C2(C(C#N)=C(N)Oc3ccccc32)C(C(=O)OC)=C1C (stereo unspecified) | i | -1.9
NCCc1ccc(S(N)(=O)=O)cc1 | i | -0.25
CN1CC(C(=O)c2ccc(Cl)cc2)C(c2ccc(N(C)C)cc2)C1 (stereo unspecified) | i | 1.8
Cc1ccc(C2=NC(C)(C)N3C2C3c2ccc([N+](=O)[O-])cc2)cc1 (stereo unspecified) | i | -0.01
C[C@H]1C[C@@H](C)C(=O)[C@@H]([C@H](O)CC2CC(=O)NC(=O)C2)C1 | i | 0.53
CN(C)c1ccc(C(=O)c2ccc(N(C)C)cc2)cc1 | i | -2
CC(C)OC(=O)C1C2c3ccccc3C(c3ccccc32)C1C(=O)O (stereo unspecified) | i | -2.2
CCCCn1c(=O)c(C(=O)NCc2ccco2)c(O)c2ccccc21 | i | 0.18
CCCCCCCSc1cc(OC)c(CCNC)cc1OC | -7.4* | 1.4*
Nc1ccc(CCN2CCCC2)cc1 | i | 0.44
O=c1[nH]c(O)c(N=Nc2ccc3c(c2)OCCO3)c(=O)[nH]1 | i | -0.25
CN(C)C1(c2nnnn2-c2ccc(Cl)cc2)CCCCC1 | i | 1.7
CSc1ccccc1C(=O)C1CCCN(Cc2ccccn2)C1 (stereo unspecified) | i | -1.7
Cc1ccccc1-n1c(O)c(/C=N/NC(=O)c2ccncc2)c(=O)[nH]c1=O | i | 1.3
O=C1CN=C(c2ccccc2F)c2cc(Cl)ccc2N1 | i | -0.24
COc1ccc(OC)c(C(O)C2CCCCN2)c1 (stereo unspecified) | i | 0.46
FC(F)(F)c1cccc(C2NCc3ccccc3-n3cccc32)c1 (stereo unspecified) | i | 1.6
COc1cccc(-n2c(O)c(C=NCCN3CCNCC3)c(=O)[nH]c2=S)c1 | i | -0.26
COc1cccc(-n2c(CN3CCN(C)CC3)nc3ccc([N+](=O)[O-])cc3c2=O)c1 | i | -0.6
CCC(=NCc1cccnc1)c1c(O)n(Cc2ccccc2)c(=O)[nH]c1=O | i | 0.03
CC(=O)Nc1ccc2c(c1)CC1(C(=O)N(C)C(=O)N(C)C1=O)C1CCCN21 (stereo unspecified) | i | -0.03
CC[C@@]1(O)C(=O)OCc2c1cc1n(c2=O)Cc2cc3c(NC(=O)CN)cccc3nc2-1 | i | 1.4
O=C1NC2NC(=O)N([N+](=O)[O-])C2N1 (stereo unspecified) | i | -0.38
O=C(Cc1ccccc1)N1CCN(CC2CC=CCC2)CC1 (stereo unspecified) | i | -1.3

Full records, quoted from the list:
`CSc1ccccc1C(=O)C1CCCN(Cc2ccccn2)C1` (stereo unspecified) reads KCNQ2 inh: i; KCNQ2 inh baseline: -1.7
`COc1cccc(-n2c(CN3CCN(C)CC3)nc3ccc([N+](=O)[O-])cc3c2=O)c1` reads KCNQ2 inh: i; KCNQ2 inh baseline: -0.6

Going on with the list:
SMILES | KCNQ2 inh | KCNQ2 inh baseline
O=C(c1cccc(C(F)(F)F)c1)C1CCCN(Cc2ccccc2O)C1 (stereo unspecified) | i | -0.01
CCC1=Nc2cc(C(=O)N3CCC4(CC3)OCCO4)ccc2Sc2ccc(Br)cc21 | i | 1.1
Cc1ccccc1NC(=O)CCl | i | 0.33
CC12CN3CCN(CC(C3)C1O)C2 (stereo unspecified) | i | -0.21
C[N+](C)(N)CCOC(=O)C(O)(c1ccccc1)C1CCCCC1 (stereo unspecified) | i | 1.5
C=C1C[C@@H]2[C@H](CC[C@]3(C)C(=O)CC[C@@H]23)[C@@]2(C)C=CC(=O)C=C12 | i | 1.4
COCCCNC(=O)c1c(NC(=O)c2ccco2)n(Cc2ccccc2)c2nc3ccccc3nc12 | i | -0.11
CCCCCn1c(=O)c(C(=O)Nc2ccccc2C)c(O)c2ccccc21 | i | 0.17
CCn1c(O)c(C=NCc2ccccc2)c(=O)[nH]c1=S | i | -1.3
Cc1ccc(OCC(=O)Nc2ccc(Cl)cc2C(=O)c2ccccc2)cc1 | i | -0.8
CCCCCn1c(=O)c(C(=O)Nc2cccc(C)c2)c(O)c2ccccc21 | i | -0.52
O=C(c1cn(Cc2ccccc2)c2ccccc12)C1CC1 | i | -0.48
O=C(c1ccccc1)C(CN1CCCC1)c1ccccc1 (stereo unspecified) | i | -2.1
COc1ccc(CN2CCN(C(=O)COc3cccc(C)c3)CC2)c(OC)c1 | i | 1.6
CCC(=NCCCN1CCOCC1)c1c(O)n(-c2ccccc2C)c(=O)[nH]c1=O | i | 1.3
Cc1ccc(C(O)(C(=O)NNC(=O)CN2CCN(C)CC2)c2ccc(C)cc2)cc1 | i | 0.62
CC(C)(C)NC(=O)NC(=O)CN1CC=C(c2ccccc2)CC1 | i | -0.47
O=C1OC(c2ccc([N+](=O)[O-])cc2)=N/C1=C/N1CC2CC(C1)c1cccc(=O)n1C2 (stereo unspecified) | i | -0.77
CCCNC(=O)N1CCC2(CC1)OCCO2 | i | 0.35
CC(Cc1ccccc1)NC(=O)Cc1ccc(N(C)C)cc1 (stereo unspecified) | i | -1.8
CC1(C)CN=C(Nc2nc3ccccc3s2)S1 | i | -1.3
COc1cc(-n2c(=S)[nH]c3ccccc3c2=O)c(Cl)cc1Cl | i | -0.6
O=C(c1ccc(Cl)cc1)C1CCCN(Cc2ccc3c(c2)OCCO3)C1 (stereo unspecified) | i | -0.31
Cc1ccc(-c2nc3ccc(Cl)cc3n2OC(=O)N(C)C)cc1 | i | 2.8
C/C(=N\NC(=O)c1ccccc1Cl)c1c(O)n(C2CCCCC2)c(=O)[nH]c1=O | i | -0.02

(further entries)
SMILES | KCNQ2 inh | KCNQ2 inh baseline
CN1/C(=C\C=Nc2ccccc2)C(C)(C)c2ccccc21 | i | 1.4
CC(C(=O)c1ccc2ccccc2c1)N1CCCCC1 (stereo unspecified) | i | 0.81
CCCCn1c(=O)c(C(=O)NC(C)c2ccccc2)c(O)c2ccccc21 (stereo unspecified) | -12* | -0.42*
COC(=O)c1ccc(CC(C(=O)c2ccccc2)N(C)C)cc1 (stereo unspecified) | i | -0.03
Cc1cccc(CN2CCCC(C(=O)c3cccc(OC(C)C)c3)C2)n1 (stereo unspecified) | i | 0.67
Cc1ccc(C(C)C)c(OCC(=O)N2CCN(Cc3nc4cc([N+](=O)[O-])ccc4n3C)CC2)c1 | i | 1.1
O=[N+]([O-])c1ccc(N2CCCC(C(F)(F)F)C2)c2ccncc12 (stereo unspecified) | i | -0.02
N#Cc1ccc(OCC(=O)N2CCN(Cc3ccc4c(c3)OCO4)CC2)cc1 | i | -0.97
CCOc1c(Cl)cc(CNCCc2c[nH]c3ccccc23)cc1OC | i | 4.1
Cc1ccc(-n2c(/C=C/c3ccc4c(c3)OCO4)nc3ccccc3c2=O)cc1 | -5.7* | 0.4*
Fc1ccc(C2NCCc3[nH]cnc32)cc1 (stereo unspecified) | i | -0.7
COc1cc(C2NCc3ccccc3-n3cccc32)ccc1O (stereo unspecified) | i | -0.2
CN1CCN(c2nc(N)cc(=O)[nH]2)CC1 | i | 0.9
COc1ccc(C(=O)C(Cc2ccccc2)N(C)C)cc1 (stereo unspecified) | i | -0.01
CCOP(=O)(OCC)C(O)c1ccc(OC)cc1 (stereo unspecified) | i | -0.36
CC(=O)C1CCC2C3CCC4CC(O)CCC4(C)C3CCC12C (stereo unspecified) | i | 2.7
CC(=NCCCN1CCOCC1)c1c(O)n(Cc2ccccc2)c(=O)[nH]c1=O | i | 0.19
COCCCNC(=O)c1c(NC(=O)c2ccccc2)n(Cc2ccccc2)c2nc3ccccc3nc12 | i | 0.68
COc1cccc(OP(=O)(Nc2ccccc2)Oc2cccc(OC)c2)c1 | -7.1* | 0.53*
CCCNC(=O)N1[C@H]2CC[C@@H]1C(C(=O)OC)=C(c1cccc(OC)c1OC)C2 | i | -0.17
O=C(Nc1ccccc1)c1cc([N+](=O)[O-])ccc1N1CCNCC1 | i | -0.79
CCc1cc(=O)oc2cc(C)cc(OCC(=O)N3CCC(C(=O)O)(c4ccccc4)CC3)c12 | i | -1.2
CN(C)c1ccc(/C=C2\C(=O)NC(=O)N(Cc3ccc(F)cc3)C2=O)cc1 | i | -0.94
COC(=O)C(c1ccccc1)N1CCCCCC1 (stereo unspecified) | i | -1.3
O=Cc1c(C(=O)O)n(Cc2ccccc2Cl)c2ccccc12 | i | -0.29

More entries follow.
SMILES | KCNQ2 inh | KCNQ2 inh baseline
O=C(COc1ccc(Cl)cc1)N1CCN(Cc2ccccc2)CC1 | i | -0.17
c1ccc2c3c([nH]c2c1)C1(CCNCC1)NCC3 | i | 1
CC(c1ccccc1)(c1ccccc1)c1ccncc1 | -6.6* | -1.2*
Oc1c(Cl)cc(Cl)cc1CN1CCN(Cc2ccccc2)CC1 | i | 1.4
CCCCn1c(O)c(C(C)=Nc2ccc3c(c2)CCC3)c(=O)[nH]c1=O | i | -0.62
Cc1nn(Cc2ccccc2)c(Cl)c1C(=O)OC(C)C(=O)Nc1ccc(F)cc1Cl (stereo unspecified) | i | 0.15
COc1ccc(C2=NCC(=O)N(CC(=O)NCc3ccco3)c3sc4c(c32)CCCC4)cc1 | i | 1.2
COc1cc(CN=Cc2c(O)n(C(C)(C)C)c(=O)[nH]c2=O)cc(OC)c1 | i | 0.68
CN1CCc2nc(SCc3cccc(Br)c3)c(C#N)cc2C1 | i | 0.37
CCCCCCn1c(O)c(C=NC2CCN(Cc3ccccc3)CC2)c(=O)[nH]c1=O | i | 2.9
O=C(C[N+]12CCC(CC1)C(OC(=O)c1ccccc1)C2)c1ccc([N+](=O)[O-])cc1 (stereo unspecified) | i | -1.7
CC1CCN(CCc2nc3ccccc3[nH]2)CC1 | i | -0.92
O=C(c1ccc2c(c1)ncn2C1CCCCC1)N1CCC2(CC1)OCCO2 | i | 0.02
Cc1ccc(N2C(=O)/C(=C/N3CCN(C(=O)c4ccco4)CC3)C(=O)NC2=S)cc1C | i | 0.43
C=CCn1c(O)c(C(C)=NCCN2CCOCC2)c(=O)[nH]c1=O | i | 1.4
O=c1[nH]c(O)c(N=Nc2cc([N+](=O)[O-])ccc2O)c(=O)[nH]1 | i | -0.34
Clc1ccc(CN2CCNCC2)cc1 | i | 0.88
CCN1CCN(c2cc(N3CCCC3)c(F)cc2[N+](=O)[O-])CC1 | i | 0.03
O=S(=O)(c1ccc(Cl)cc1)N1CCCC1c1cccnc1 (stereo unspecified) | i | -0.01
COc1ccc(C(=O)NC(=S)N2C[C@H]3C[C@H](C2)c2cccc(=O)n2C3)cc1OC | i | 0.5
Cc1ccc(-c2cc(-c3ccccc3)cc(-c3ccccc3)[n+]2-c2ccc(C(=O)O)cc2)cc1 | i | -1.2
O=C(c1ccc2c(=O)n(Cc3ccc4c(c3)OCO4)c(=S)[nH]c2c1)N1CCC2(CC1)OCCO2 | i | -1.3
O=C(CN1CCCCC1)NCC(=O)Nc1ccc(Br)cc1C(=O)c1ccccc1 | i | 0.09

Molecules listed so far that contain an NH in an aromatic ring (20):
SMILES | KCNQ2 inh | KCNQ2 inh baseline
O=c1[nH]c(O)c(N=Nc2ccc3c(c2)OCCO3)c(=O)[nH]1 | i | -0.25
Cc1ccccc1-n1c(O)c(/C=N/NC(=O)c2ccncc2)c(=O)[nH]c1=O | i | 1.3
COc1cccc(-n2c(O)c(C=NCCN3CCNCC3)c(=O)[nH]c2=S)c1 | i | -0.26
CCC(=NCc1cccnc1)c1c(O)n(Cc2ccccc2)c(=O)[nH]c1=O | i | 0.03
CCn1c(O)c(C=NCc2ccccc2)c(=O)[nH]c1=S | i | -1.3
CCC(=NCCCN1CCOCC1)c1c(O)n(-c2ccccc2C)c(=O)[nH]c1=O | i | 1.3
COc1cc(-n2c(=S)[nH]c3ccccc3c2=O)c(Cl)cc1Cl | i | -0.6
C/C(=N\NC(=O)c1ccccc1Cl)c1c(O)n(C2CCCCC2)c(=O)[nH]c1=O | i | -0.02
CCOc1c(Cl)cc(CNCCc2c[nH]c3ccccc23)cc1OC | i | 4.1
Fc1ccc(C2NCCc3[nH]cnc32)cc1 (stereo unspecified) | i | -0.7
CN1CCN(c2nc(N)cc(=O)[nH]2)CC1 | i | 0.9
CC(=NCCCN1CCOCC1)c1c(O)n(Cc2ccccc2)c(=O)[nH]c1=O | i | 0.19
c1ccc2c3c([nH]c2c1)C1(CCNCC1)NCC3 | i | 1
CCCCn1c(O)c(C(C)=Nc2ccc3c(c2)CCC3)c(=O)[nH]c1=O | i | -0.62
COc1cc(CN=Cc2c(O)n(C(C)(C)C)c(=O)[nH]c2=O)cc(OC)c1 | i | 0.68
CCCCCCn1c(O)c(C=NC2CCN(Cc3ccccc3)CC2)c(=O)[nH]c1=O | i | 2.9
CC1CCN(CCc2nc3ccccc3[nH]2)CC1 | i | -0.92
C=CCn1c(O)c(C(C)=NCCN2CCOCC2)c(=O)[nH]c1=O | i | 1.4
O=c1[nH]c(O)c(N=Nc2cc([N+](=O)[O-])ccc2O)c(=O)[nH]1 | i | -0.34
O=C(c1ccc2c(=O)n(Cc3ccc4c(c3)OCO4)c(=S)[nH]c2c1)N1CCC2(CC1)OCCO2 | i | -1.3
